Source: PubChem BioAssay (Fisher Drug Discovery Resource Center)
NPYLR7 ag: mosquito NPYLR7 agonism; AID 1259423; activation, % at 10 µM; HEK293T NPYLR7/Galpha15, GCaMP6s calcium fluorescence; actives 0.15% (n = 270,000); in the data active means activation above about 40%;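 further: 0% = vehicle and 100% = reference agonist at the receptor; some compounds past the cut are filed as inactive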
NPYLR7 ag max-min: second read-out of NPYLR7 ag, no call of its own (marks repeat the call); activation, %; measured here: Max-Min RFU normalised activation; some inactives read as strong as hits;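 span of the calcium signal over five minutes; 0% = vehicle and 100% = native peptide agonist; compound fluorescence can raise it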
An asterisk follows results filed as active; & = joins results of further samples. Only part of the results is shown, so the mix of outcomes need not match the whole.

SMILES | NPYLR7 ag | NPYLR7 ag max-min
CC(NC1CCN(c2ccc(NC(=O)Cc3cccc(Cl)c3)cc2)CC1)c1cccs1 (stereo unspecified) | 16.8 | 6.4
CC(=O)Nc1ccc(C(=O)NCc2nn(C)c3ccc(C)cc23)c(C)c1 | 18.1 | 7.1
c1ccc(N[C@@H]2CC[C@H]3C[C@H]2C(Oc2ccccn2)CO3)cc1 (stereo partly specified) | 4.3 | 15.6
CCc1nc2ccc(C(=O)N3CCN(S(=O)(=O)CC)CC3)cn2c1N(C=O)CCC(C)C | -5.9 | -10.9
Cc1ccc(S(=O)(=O)c2cnc(SCC(=O)Nc3cc(F)ccc3F)[nH]c2=O)cc1 | -6.9 | -10.6
COc1ccc(NC(=O)N(CC(=O)Nc2cc(C(C)(C)C)nn2-c2ccccc2C)Cc2ccccc2)c(OC)c1 | -7.7 | -8.1
COc1cc(C)c(-c2ccc(F)c3c2OC(CN)C3)cc1C (stereo unspecified) | 1.3 | 1.0
CN1C(=O)CC(C(=O)Nc2ccccc2F)SC1=Nc1ccc2c(c1)OCO2 (stereo unspecified) | 0.8 | -0.3
Cc1n[nH]c(C)c1Cc1nc(CC2CCN(C)CC2)no1 | 10.4 | 7.2
O=C(c1ccc(-c2cccc3ccnn23)cc1)C1CC1 | 2.2 | 2.0
COCCNC(=O)c1ccc(OC2CCN(Cc3ccc(OC)cc3F)CC2)c(Cl)c1 | 8.4 | 5.6
CN(C)C=Nc1nc(-c2ccc3ccccc3c2)cs1 | -4.8 | -9.3
O=C(Nc1ccc(Oc2ccc(Cl)c3cccnc23)c(Cl)c1)c1cc(Cl)cc(I)c1O | 8.4 | 5.8
CC(C)N(Cc1cccc(OS(C)(=O)=O)c1)C(=O)Nc1ccc(Cl)cc1 | 13.1 | 19.6
CN(C)C(=O)COc1ccccc1CNC1CCN(c2ccccc2)CC1 | 12.9 | 8.9
CN1CCCN(S(=O)(=O)NCc2ccccc2)CC1 | 3.5 | 0.0
O=C(O)CCc1ccc(-c2ccc(Br)cc2)n1NC(=O)c1ccc(O)cc1 | 6.0 | 2.6
CNc1nc2cnc(Nc3cc(OC)c(OC)c(OC)c3)cc2n1-c1cccc(F)c1 | 7.6 | -2.5
CC1CN(c2cc(Cl)nc(SCC(=O)Nc3ccccc3F)n2)CCN1C(=O)c1cccc(F)c1 (stereo unspecified) | 21.6 | 22.7
C/C(=N/NC(=S)N1CCC1)c1ccccn1 | 2.1 | -4.5
O=C(CSc1nnnn1C1CC1)N(Cc1ccco1)C1=CCCCC1 | 2.3 | 7.5
CCCSc1nnc2n(Cc3ccccc3OC)c(=O)c3ccccc3n12 | 11.6 | 3.5
CNC(=O)C(NC(=O)c1ccc(S(=O)(=O)N2CCCC2)o1)c1ccccc1 (stereo unspecified) | 6.1 | 0.9
N#CCc1ccccc1C(=O)OCC(=O)N1CCN(c2ccccc2)CC1 | 7.4 | 5.2
Cc1ccc(CNc2oc(-c3ccc(S(=O)(=O)N4CCCCC4)cc3)nc2C#N)cc1 | 0.8 | 19.9
CC(C)(C(=O)Nc1cccc(S(C)(=O)=O)c1)c1ccc(Cl)cc1 | -17.5 | -22.0
CC(C)N(Cc1ccc(Cl)c(Cl)c1)Cc1nc(C(=O)NCC2CC2)co1 | 0.7 | -9.0
Cc1ccccc1C1c2ccsc2CCN1C(=O)CN(CC1CCCO1)C(=O)C(C)Cl (stereo unspecified) | -4.5 | 5.1
CCCSc1nc2c3c(sc2c(=O)[nH]1)CC(C)(CC)OC3 (stereo unspecified) | 2.3 | 2.7
Cc1sc(-c2ccccc2)nc1CC(=O)NCC1(N)CCCC1 | 7.2 | 1.9
CCN(CC)CCOCCOC(=O)C(CC)(CC)c1ccccc1 | -2.3 | -8.6
O=[N+]([O-])c1ccc(NN=C2CCCCCCC2)cc1 | -6.9 | -9.5
Cc1ccc(CC(C#N)C(=N)C(C#N)C#N)cc1 (stereo unspecified) | -0.8 | -4.4
Cc1ccc(C)c(NC(=O)CSc2nnc(CNC(=O)Cc3ccccc3)n2-c2ccc(F)cc2)c1 | -6.5 | -1.1
CCCC(=O)OCC(O)CN(CCC(C)C)Cc1c(-c2ccc(F)cc2)noc1N(CC)CC (stereo unspecified) | 15.3 | 15.2
O=C(NCCc1ccccc1F)c1cncc(Br)c1 | 4.8 | 3.4
Cc1cccc(NC(=O)CNC(=O)CN2c3ccccc3CC2C)c1C (stereo unspecified) | 2.3 | -0.5
O=C(NCc1ccccc1F)c1ccccc1N1CCC(NS(=O)(=O)c2ccc(F)cc2)CC1 | 22.8 | 13.8
CC(=O)Cn1c(CN2CC(C)OC(C)C2)nc2c1c(=O)[nH]c(=O)n2C (stereo unspecified) | -6.7&13.7 | -6.3&13.9
CCOc1ccc(-c2ccnc(N3CCN(C(=O)COc4c(F)c(F)c(F)c(F)c4F)CC3)n2)cc1 | 13.8 | 4.8

Quoted at random: four entries already listed, in no set order.
SMILES | NPYLR7 ag | NPYLR7 ag max-min
Cc1ccc(CNc2oc(-c3ccc(S(=O)(=O)N4CCCCC4)cc3)nc2C#N)cc1 | 0.8 | 19.9
CC(C)N(Cc1ccc(Cl)c(Cl)c1)Cc1nc(C(=O)NCC2CC2)co1 | 0.7 | -9.0
O=C(NCc1ccccc1F)c1ccccc1N1CCC(NS(=O)(=O)c2ccc(F)cc2)CC1 | 22.8 | 13.8
CCCSc1nnc2n(Cc3ccccc3OC)c(=O)c3ccccc3n12 | 11.6 | 3.5

Some of the entries above, reformatted.
Results follow in this order: NPYLR7 ag, NPYLR7 ag max-min
- CCCSc1nc2c3c(sc2c(=O)[nH]1)CC(C)(CC)OC3 (stereo unspecified)
→ 2.3, 2.7
- Cc1sc(-c2ccccc2)nc1CC(=O)NCC1(N)CCCC1
→ 7.2, 1.9
- CCN(CC)CCOCCOC(=O)C(CC)(CC)c1ccccc1
→ -2.3, -8.6

(list continues)
SMILES | NPYLR7 ag | NPYLR7 ag max-min
NC(=NN=C1SCCS1)c1cnccn1 | 9.0 | 12.1
CCOC(=O)c1nc2ccccc2nc1N1CCCN(C(=O)N2CCOCC2)CC1 | 26.0 | 26.3
O=C(CCc1cccnc1)N1Cc2cnn(CCO)c2C1 | 6.7 | 4.3
COCCCN(CC(=O)N(CCc1c[nH]c2ccccc12)Cc1ccc(C)cc1)C(=O)Nc1ccc([N+](=O)[O-])cc1 | 25.6 | 34.5
COCCN1CCN(c2nc(C(=O)Nc3ccccc3C(C)(C)C)cs2)C1=O | -2.9 | -3.8
Clc1ccccc1-n1cnnc1Cc1cccnc1 | -7.6 | -9.5
CC1CCCN(C(=O)CNc2cc(C#N)ccc2OC(C)C)C1 (stereo unspecified) | 10.8 | 10.3
O=C1OC(c2ccc(Cl)cc2Cl)=N/C1=C\C(Br)=C\c1ccccc1 | -1.3 | -5.9
COc1ccccc1C(=O)NCCn1cc(SCC(=O)Nc2ccc(C)cc2)c2ccccc21 | -0.2 | -0.5
NC(=O)C1(CNC(=O)c2sc3cc(C(F)(F)F)ccc3c2Cl)CCOCC1 | 7.1 | 6.5
c1ccc(-c2csc(CN3CCCC(N4CCc5ccccc5C4)C3)n2)cc1 (stereo unspecified) | 3.1 | -0.9
COc1ccc(CC2CCN(Cc3ccccc3Br)CC2)cc1 | 2.3 | 5.8
c1ccn2cc(CCNc3ncnc4nc[nH]c34)nc2c1 | 17.6 | 5.2
Cc1cc(CNC(=O)c2ccc(Cn3cnnn3)cc2)c2[nH]c(C)c(C)c2c1 | 8.6 | 7.3
CCc1cccc2c(C(CC(=O)N3CCN(c4ccccc4F)CC3)c3ccc(Cl)cc3)c[nH]c12 (stereo unspecified) | -1.6 | 3.2
Cc1[nH]n(-c2nc3ccccc3[nH]2)c(=O)c1C1OC(=O)c2ccccc21 (stereo unspecified) | -15.8 | -24.4
CCNc1nc(C)c(C(=O)N[C@H]2C[C@@H](C(=O)OC)N(C)C2)s1 | -3.6 | -3.8
COc1ccc(C=C2N=C(c3ccc(OC)c(OC)c3)OC2=O)cc1 | -2.4 | -7.4
O=C(CCC1CCCC1)Nc1nnc(SCc2ccccc2)s1 | 2.2 | 0.4
COc1ccccc1C=CC(=O)c1ccc(Cl)cc1 | -0.4 | -1.0

Molecules shown so far that have a tert-butyl group (2):
SMILES | NPYLR7 ag | NPYLR7 ag max-min
COc1ccc(NC(=O)N(CC(=O)Nc2cc(C(C)(C)C)nn2-c2ccccc2C)Cc2ccccc2)c(OC)c1 | -7.7 | -8.1
COCCN1CCN(c2nc(C(=O)Nc3ccccc3C(C)(C)C)cs2)C1=O | -2.9 | -3.8

Following part
SMILES | NPYLR7 ag | NPYLR7 ag max-min
CCc1c(C)nn(-c2ccc(C(=O)NC3CCC(C(C)(C)C)CC3)cc2)c1C (stereo unspecified) | 1.6 | 2.2
CN(C)c1cc(N2CCCC(CN3CCCCC3)C2)ncn1 (stereo unspecified) | -10.3 | -15.1
CC(CCn1cccn1)NC(=O)c1ccc2c(c1)OCC(=O)N2 (stereo unspecified) | -0.7 | 12.9
CCc1noc(CN(CC)C(=O)c2ccc3nc(C)c(C)nc3c2)n1 | 0.3 | 3.0
O=C(NCCO)/C(=C/C=C\c1ccccc1)NC(=O)c1ccc(Br)o1 | -2.4 | 14.7
COc1ccc(Cl)cc1NC(=O)CCC1CCCN(C(=O)CSc2ccccn2)C1 (stereo unspecified) | 3.8 | -2.5
CCc1nc2n(n1)C(=O)C(C(c1ccco1)N1CCN(c3cccc(Cl)c3)CC1)S2 (stereo unspecified) | -4.8 | -9.6
COc1ccc(N2C(=O)C3CCCN3C2=S)cc1 (stereo unspecified) | 3.9 | 2.1
Cc1noc(C)c1C(=O)N1CCCC(CCc2ccc(F)cc2F)C1 (stereo unspecified) | 1.9 | 0.1
COCc1cc(CN2CCN(C)C(=O)C2C)ccc1OC (stereo unspecified) | 4.8 | 4.2
O=C(CSc1ccc2nnc(-c3cccnc3)n2n1)Nc1ccccc1 | 0.1 | -1.0
CC(C)NC(=O)CSc1nc(N)c(NC(=O)c2ccccc2F)c(=O)[nH]1 | -3.9 | -7.4
C#CCNC(=O)[C@H]1C[C@@H](O)[C@H](O)[C@@H]2N=C(Nc3cc(OC)cc(OC)c3)S[C@@H]21 | -6.7 | -15.8
O=C(c1ccc2c3c(cccc13)CC2)C1CCCN(C(=O)c2cscn2)C1 (stereo unspecified) | 4.8 | 5.2
COC(=O)c1ccc(C=CC(=O)c2ccc(N3CCCCC3)cc2)cc1 | 1.0 | 0.3
O=C(Nc1cccnc1N1CCN(C(=O)c2ccc(Cl)cc2F)CC1)c1ccc2c(c1)OCO2 | 3.5 | -0.5
Cc1ccc(C)c(S(=O)(=O)N2CCN(Cn3c(=O)n(C)c4ccccc43)CC2)c1 | 4.6 | 9.0
N#CC1(NC(=O)CN2CCN(c3ccccc3)CC2)CCCCC1 | 0.2 | -0.5
FC(F)(F)c1ccccc1CNc1ncnc2[nH]ncc12 | -1.4 | -3.1
O=C1NC(CC(=O)N2CCc3c(cc(-c4cccc(Cl)c4)c(=O)n3CC3CC3)C2)c2ccccc21 (stereo unspecified) | -1.6&18.8 | -3.0&12.5
CCCS(=O)(=O)NCc1nc(-c2cccc(F)c2)c(-c2ccccn2)[nH]1 | 1.4 | 1.4
COc1ccc(OC)c(S(=O)(=O)N2CCCCC2C(N)=O)c1 (stereo unspecified) | 1.4 | -0.4
CN(C)c1ccc(C(CNC(=O)Nc2cccs2)N2CCCC2)cc1 (stereo unspecified) | 5.1 | 2.8
CC(C)(C)c1ccc(C(=O)Nc2ccc(-c3noc(-c4ccc([N+](=O)[O-])cc4Cl)n3)cc2)cc1 | -4.3 | -6.7
CSc1ccc(Cl)c(C(=O)Nc2nc(-c3ccc(C)o3)ns2)c1 | -2.6 | -2.2
COc1ccc(CN(Cc2ccc(F)cc2)Cc2nc(C(=O)NCCN3CCOCC3)co2)cc1 | 6.6 | 12.0
COCC(=O)N1CCN(c2nc(-c3cccc(Cl)c3)no2)CC1 | -1.0 | 264.2
COc1ccc(F)cc1S(=O)(=O)NCc1ccncc1 | 2.7 | 0.4
Cc1cc(OC(=O)c2cccc(Br)c2)c([N+](=O)[O-])c(=O)[nH]1 | 2.7 | 3.5
Cc1cc(NC(=O)/C=C/c2ccc3c(c2)OCO3)n(-c2nc3c(c(=O)[nH]2)CCC3)n1 | 10.7 | 1.1
